Screening results as filed in PubChem.
Menin-MLL FL inh = displaces fluorescein MLL peptide from human menin; Fluorescence polarization, fluorescein-MLL peptide displacement from menin; FP activity change, % at 61.4 µM; 290,000 tested, under 10 active; AID 1766; inconclusive = falling polarisation curve, or a change in total fluorescence; inactive = total fluorescence flat and polarisation flat or rising; no compound was filed as active; the % refers to the polarisation; negative = inhibition;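 also: % of control where 0% means no effect; inhibitors lower the polarisation; unlabelled MLL peptide was the positive control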
TRPML1 ag = activates the human TRPML1 channel; Q9GZU1; TRPML1-expressing cells, Ca2+ dye fluorescence, FDSS; host cell line not named in the record; reference of the full effect not given here; activation, % (test concentration not listed); actives 0.12% (n = 410,000); AID 624414; in the data active = activation above about 50%; inconclusive = about 30% to 50%; inactive = below about 30%; also: 0% is about no effect; the text of the record puts the active cut at 80%
Target sequence (Q9GZU1 whole entry, looked up): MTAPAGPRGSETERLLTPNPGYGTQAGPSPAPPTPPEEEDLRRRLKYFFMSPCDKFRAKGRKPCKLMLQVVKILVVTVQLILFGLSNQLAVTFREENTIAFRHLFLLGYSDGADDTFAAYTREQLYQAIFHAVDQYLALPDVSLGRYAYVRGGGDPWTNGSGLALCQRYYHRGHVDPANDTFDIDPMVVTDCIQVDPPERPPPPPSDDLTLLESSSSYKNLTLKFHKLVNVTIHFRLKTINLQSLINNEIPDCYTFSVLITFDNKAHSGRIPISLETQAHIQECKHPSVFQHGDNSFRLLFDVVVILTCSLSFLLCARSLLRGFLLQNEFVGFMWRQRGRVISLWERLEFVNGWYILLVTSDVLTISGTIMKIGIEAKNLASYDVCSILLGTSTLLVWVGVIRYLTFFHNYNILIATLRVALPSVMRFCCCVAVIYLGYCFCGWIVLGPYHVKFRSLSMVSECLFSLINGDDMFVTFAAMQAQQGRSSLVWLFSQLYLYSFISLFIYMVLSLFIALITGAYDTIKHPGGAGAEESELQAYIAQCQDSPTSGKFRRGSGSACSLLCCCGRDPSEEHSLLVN
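Tetracycline-induced TRPML1-DL cells are seeded and incubated overnight before loading with a no-wash Ca2+ dye and quencher. Agonist activity is taken from the 110 s fluorescence read following compound pin-transfer on an FDSS, before EC80 54-4 challenge.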
gsp antag = antagonizes gsp, the McCune-Albright syndrome mutation. gsp-mutant cells, cAMP HTRF, 30 min; control for the full effect not named in the record. Potency, µM (highest dose often 76.9 µM), inactives show at the highest dose activity change, negative = inhibition, actives largely listed as inhibitors. actives 0.4% (n = 340,000). AID 624288; active = falling curve of any shape with a large fitted effect; inconclusive = falling curve, mostly with a smaller effect; inactive = flat or rising curve; cell line not stated here;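 also: intracellular cAMP measured with PDE inhibitor Ro 20-1724 present during compound exposure; potency is read from the fitted curve at half-maximal effect; % is scaled to controls: 0 for no effect and ±100 for the full control effect; nearly all actives have a fitted effect of over 65% in size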
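G418-selected cells were plated in DMEM/10% FBS for 16-24 h at 37C, then treated with compounds plus the PDE inhibitor […] (300 uM solution added) for 30 min at 37C. Intracellular cAMP was measured by HTRF after 30 min lysis at room temperature.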
ClpP mod = qHTS Assay for Activators of ClpP. ATP-dependent Clp protease proteolytic subunit (Bacillus subtilis (strain 168)), P80244. purified B. subtilis ClpP, FRET peptide cleavage, 20 min. Potency, µM (series often up to 57.5 µM), for the others: top-dose activity change, negative = active. actives 1.9% (n = 340,000); active = well fitted falling curve with a large enough effect; inconclusive = small, poorly fitted or top-dose-only effect; inactive = no such curve, though single readings can be large or run the other way; also: potency is read from the fitted curve at half-maximal effect; the source files actives as falling curves though it sought activators and does not explain the sign; nearly all actives have a fitted effect of over 65% in size; many hits overshoot -100%
Target sequence (P80244 whole entry, looked up): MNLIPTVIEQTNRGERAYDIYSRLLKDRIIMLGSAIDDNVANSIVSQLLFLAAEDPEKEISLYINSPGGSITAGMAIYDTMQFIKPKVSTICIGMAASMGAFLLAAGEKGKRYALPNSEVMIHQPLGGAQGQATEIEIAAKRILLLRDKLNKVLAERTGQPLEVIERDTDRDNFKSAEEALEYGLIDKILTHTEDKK
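Buffer: 100 mM Tris/HCl pH8, 100 mM KCl, 0.05% low protease BSA, 2.5% glycerol, 0.01% Tween-20. ClpP 10 microg/mL final; 20 min RT; delta FRET normalized to ADEP and DMSO controls.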
TRPML1 blocker = blocks the human TRPML1 channel; Q9GZU1; TRPML1-inducible cells, Ca2+ dye fluorescence, FDSS; hits give low values; inhibition of EC80 agonist-evoked calcium signal; activity change, negative = inhibition, % (no concentration beside the values); actives 0.02% (n = 390,000); AID 624415; in the data active means activity change below about -50%; inconclusive means about -30% to -50%; inactive means above about -30%;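 also: stimulus is agonist 54-4 at its EC80 concentration; % is scaled to controls: 0 for no effect and ±100 for the full control effect; compound concentration not given in the record; the text of the record puts the active cut at -80%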
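Calcium fluorescence in TRPML1-DL cells induced overnight with Tet: a 110 s read after compound pin addition, then a 110 s antagonist read after challenge with 54-4 at 4 uM final (EC80).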
gsp agonist = activates gsp, the McCune-Albright syndrome mutation | gsp mutant cells, cAMP HTRF, 30 min; control for the full effect not named in the record | Potency, µM (titrated, usually from 76.9 µM), inactives show at the top dose activation (cAMP increase), usual class: activators | actives 0.13% (n = 340,000); active = well fitted activation curve with a large enough effect; inconclusive = small, poorly fitted or top-dose-only effect, or another doubt; inactive = no such curve, though single readings can be large or run the other way; cell line not stated here;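 also: phosphodiesterase inhibitor Ro 20-1724 added with compounds to block cAMP breakdown; potency is read from the fitted curve at half-maximal effect; nearly all actives have a fitted effect of over 60% in size; about a fifth of the inactives were tested at one dose only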
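Cells stably selected in G418 were plated at 2000/well, grown 16-24 hr, then given compounds in DMSO with the PDE inhibitor […] (300 uM solution added) for 30 min at 37C; cAMP was read by HTRF.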
An asterisk follows results filed as active; ? = inconclusive; / = not tested or not shown; & = joins results of further samples; [ ] = another dose, or the depositor's remark.

Compound | Menin-MLL FL inh | TRPML1 blocker | TRPML1 ag | gsp agonist | ClpP mod | gsp antag
O=C(NCc1ccc(F)cc1)C(=O)Nc1nc(C23CC4CC(CC(C4)C2)C3)cs1 | 8.0 | -3 | 1.5 | 2%[15.4 µM] | -5.5% | -3%
CCOC(=O)C(C)NC(=O)CCc1nnc2ccc(N3CCC(C)CC3)nn12 (stereo unspecified) | -3.1 | 2 | -0.3 | 6% | -0.8% | -6%
COc1ccc(-n2c(Cc3cccn3C)nnc2SCC(=O)NCc2ccco2)cc1 | 2.2 | -2 | -0.2 | -10% | -2.5% | 2%
Cc1ccccc1C(=O)OCc1cnc(Cl)s1 | 1.5 | -5 | 1.8 | 25% | -2.6% | 3%
COc1cccc(Nc2nc(-c3ccccc3O)nc3ccccc23)c1 | ? | / | / | ? | -3.6% | -1%
O=C(CNC(=O)c1ccccc1F)Nc1ccc2c(c1)CCC2 | / | -10 | -0.4 | -40%[inhibitor] | 1.5% | 11%
CN(C)N1C(=O)CC(NNC(=O)c2ccncc2)C1=O (stereo unspecified) | 2.5 | 14 | -0.3 | 2% | -0.4% | 13%
CCn1c(SCc2nc3scc(-c4ccccc4)c3c(=O)[nH]2)nnc1-c1cccs1 | 11 | -2 | 3.6 | -45%[inhibitor] | 1.3% | -24%
CC1Cc2ccccc2N1S(=O)(=O)c1ccc2c(c1)n(C)c(=O)c(=O)n2C (stereo unspecified) | 0.3 | 0 | 0.3 | 8% | 4.5% | -2%
CC(=O)OC1COC(N2CCc3cc([N+](=O)[O-])ccc32)C(OC(C)=O)C1OC(C)=O (stereo unspecified) | 0.9 | -7 | 0.5 | 11% | -0.4% | -2%
CC1=NN(C2=NS(=O)(=O)c3ccccc32)C(C)(O)C1 (stereo unspecified) | 6.1 | 23 | 0.2 | -3% | / | -10%
Cc1ccccc1CNC(=O)C1CCN(S(=O)(=O)Cc2ccccc2)CC1 | / | 7 | 0.1 | / | 0.8% | /
Cc1occc1C(=O)Nc1ccc2ccccc2c1 | 0.1 | -6 | -0.8 | 0% | -2.6% | -18%
O=C(NCC(c1ccc2c(c1)OCO2)N1CCOCC1)c1ccccc1F (stereo unspecified) | / | -2 | -0.1 | / | -1.2% | /
COC(=O)[C@]1(Cc2ccccc2)N[C@H](CN(C)C(=O)c2ccc(F)cc2)[C@@H]2C(=O)N(Cc3ccccc3)C(=O)[C@@H]21 | / | 2 | -0.9 | / | 1.7% | -21%
NC(=O)CSc1cn(Cc2ccccc2)c2ccccc12 | 3.2 | -3 | -0.1 | 14%[15.4 µM] | / | -31%
O=C(CCNS(=O)(=O)c1cccc2nsnc12)NC1CCCc2ccccc21 (stereo unspecified) | 0.1 | 6 | -0.2 | 10% | -4.5% | 0%
COC(=O)c1ccccc1NC(=O)CN(c1ccc(Cl)cc1)S(=O)(=O)c1ccc(OC)cc1 | / | -2 | -0.6 | / | -17% | /
OCC1(Cc2ccccc2)CCN(Cc2ccc(-c3ccco3)cc2)CC1 | -1.1 | 4 | 0.5 | 26% | ? | 5%
COc1ccc(NC(=O)CSc2nc3ccccc3c(=O)n2CCCO)cn1 | / | 26 | 0.3 | 4% | -1.8% | -13%
O=C(CNC(=O)c1cccc(Cl)c1)N/N=C/C=C/c1ccccc1 | -2.8 | 18 | 1.8 | 0% | -1.1% | -1%
O=C(NCc1cccs1)C1CCN(S(=O)(=O)N2CCCC2)CC1 | 0.1 | -15 | -0.3 | -50%[inhibitor] | -4.4% | -2%
CC(=O)Nc1ccc(NC(=O)COC(=O)CCCc2c[nH]c3ccccc23)cc1 | / | -9 | 0.6 | -10%[15.4 µM] | -8.4% | 3%
O=C(CC(C(=O)O)c1ccc(Cl)cc1)c1ccccc1 (stereo unspecified) | 2.2 | -5 | -0.5 | -45%[inhibitor] | / | -3%
Cc1ccc(N2CCN(C(=O)c3cc4cc5ccc(C)cc5nc4s3)CC2C)cc1 (stereo unspecified) | / | -9 | -1.1 | / | -2.1% | /
COc1ccc2c(c1)OC(=O)CC2c1ccccc1OC (stereo unspecified) | 6.4[94.6 µM] | -7 | 0.3 | / | -3.2% | 6%
CCC1Nc2ncnc(N3CCCCC3)c2N(Cc2ccc(C)cc2)C1=O (stereo unspecified) | / | -10&4 | 0.0&1.2 | / | 0.1%&-1.2% | -13%
O=C(CN1CCN(S(=O)(=O)c2ccccc2)CC1)NC(=O)NC1CCCCC1 | 3.3 | -5 | -0.9 | 2% | 0.6% | 13%
c1ccc(CN=C2Nc3ccccc3CS2)nc1 | -0.1 | 2 | 0.5 | -35%[inhibitor] | / | 2%
C=CCNC(=S)NNC(=O)c1cc(-c2cccnc2)nc2ccccc12 | -1.6 | 2 | -0.6 | -48%[inhibitor] | 3.1% | ?
O=C(N/N=C/c1cn(-c2ccccc2)nc1-c1cccnc1)c1ccccc1 | -3.8 | -7 | 0.5 | -1% | / | ?
O=[N+]([O-])c1ccc(N(c2ccccc2)c2ccccc2)cc1 | ? | 2 | 10 | 10% | 0.6% | 9%
O=C(NCc1cccc(Cl)c1)c1oc(=O)c2ccccc2c1-c1ccccc1 | / | 8 | 1.8 | / | -1.3% | /
Nc1nonc1-n1nnc(C(=O)N/N=C/c2ccc(OCc3ccc(F)cc3)cc2)c1COc1ccccc1 | 4.5 | 2 | 1.3 | -44%[inhibitor] | 3.7% | 9%
COc1ccc(-c2csc(Nc3ccc(S(N)(=O)=O)cc3)n2)cc1 | 8.2 | -9 | 0.0 | 29% | 3.1% | 8%
O=C1S/C(=C/c2ccc(N3CCOCC3)o2)C(=O)N1Cc1ccc(F)cc1 | ? | -14 | 20 | 1% | -1.9% | 19%
CCCCN(C(=O)c1cc(S(=O)(=O)N2CCOCC2)ccc1N1CCOCC1)c1ccccc1 | / | 2 | -0.3 | -113%[inhibitor] | -4.2% | /
O=C(c1ccc(-c2ccccc2)cc1)C1CCCN(C(=O)c2cncs2)C1 (stereo unspecified) | 0.5 | -1 | 2.7 | -14%[15.4 µM] | / | /
COc1cc(/C=C(\C#N)C(=O)Nc2ccccc2F)ccc1OCCN1CCOCC1 | / | -12 | 1.4 | -9%[15.4 µM] | -5.9% | -10%
COc1ccc(S(=O)(=O)N(CCc2ccccc2)CC(=O)NCc2ccccc2)cc1 | / | -4 | 0.3 | / | 0.7% | /
CC(OC(=O)/C=C/c1ccco1)C(=O)Nc1cccc([N+](=O)[O-])c1 (stereo unspecified) | -0.4 | -13 | -0.3 | 5% | 0.9% | -5%
CCN(CC)S(=O)(=O)c1ccc(C(=O)Nc2ccc(C(F)(F)F)n(C)c2=O)cc1 | / | 13 | -1.2 | -15%[15.4 µM] | -4.2% | 12%
COc1cc(C[C@@H](C)[C@@H](C)Cc2ccc(O)c(OC)c2)ccc1O | / | 78 | 2.1 | 5% | -3.7% | 6%
O=C(Oc1ccccc1OC(=O)N1CCOCC1)N1CCOCC1 | 0.9 | 1 | 2.5 | 8% | 2.0% | 1%
O=C(/C=N/O)Nc1ccccc1 | 0.6 | 1 | 0.6 | 8% | -0.9% | 9%
C[C@@H](OC(=O)c1[nH]cnc1C(=O)N1CCc2ccccc2C1)c1ccccc1 | / | -20 | 1.2 | -19% | -0.9% | -11%
O=C(/C=C/c1ccc(Br)o1)NCc1ccccc1 | 12 | -9 | -0.4 | 22% | -6.0% | 6%
CCN1CCN(C(c2ccccc2Cl)c2c(O)cc(C)n(CCOC)c2=O)CC1 (stereo unspecified) | / | -6 | 2.1 | / | 1.1% | /
O=C(Nc1cccc(F)c1)/C(=C\c1cccnc1)NC(=O)c1ccco1 | -5.4 | -3 | -0.7 | -1%[15.4 µM] | / | 16%
O=[N+]([O-])c1ccc(N=Cc2ccc(Br)c([N+](=O)[O-])c2)cc1 | 3.7 | 29 | 1.1 | -35%[inhibitor] | 1.6% | 4%
COC(=O)c1ccccc1C(=O)N1CCCC(CCC(=O)NCc2ccc(F)c(F)c2)C1 (stereo unspecified) | ? | -9 | -0.2 | 9% | / | -1%
CCCCNCCOc1ccccc1-c1ccccc1 | 2.5 | -8 | -1.0 | 5% | -2.2% | 24%
Cc1ccc(NC(=O)CN2C(=O)NC3(CCCC3)C2=O)cc1S(=O)(=O)N1CCCCC1 | / | 9 | -0.5 | 8% | -0.7% | -8%
CC(=O)Nc1ccc(S(=O)(=O)N(CC(=O)Nc2cc(C)on2)Cc2ccc(F)cc2)cc1 | 2.4 | -10 | -0.1 | -1% | 0.0% | 0%
O=C(CN1C(=O)CCC1=O)NC(=O)NC1CCCC1 | 3.1 | -3 | -0.2 | -4%[15.4 µM] | / | 14%
C=CCNC(=S)N/N=C(\C)c1cccnc1 | -4.1 | -13 | 0.0 | -7%[15.4 µM] | -1.2% | 2%
CC(OC(=O)c1cccc(S(=O)(=O)N2CCCC2)c1)C(=O)NC1CCCCC1C (stereo unspecified) | / | -9 | 1.5 | 13%[15.4 µM] | / | 3%
Cc1ccc(S(=O)(=O)NCC(=O)OCc2cc(=O)oc3c(C)c(C)ccc23)cc1C | / | 0 | 1.2 | -14% | -12% | -11%
Cc1cccc(CCN(C(=O)c2csnn2)C(C(=O)NC2CCCC2)c2ccco2)c1 (stereo unspecified) | -4.3 | 21 | 1.8 | 3% | / | -14%
CCOC(=O)c1c(C)oc2c1c1c(c3ccccc32)OCN(Cc2cccnc2)C1 | ? | 50 | -1.0 | 13% | -17% | -24%

More compounds:
Compound | Menin-MLL FL inh | TRPML1 blocker | TRPML1 ag | gsp agonist | ClpP mod | gsp antag
Oc1ccc(-c2n[nH]c(=S)n2Cc2ccco2)cc1 | 2.6 | 35 | 1.0 | -15% | -17% | 5%
CCOC(=O)Nc1nnc(/C=C/c2ccc(OC)cc2)s1 | 1.5 | 32 | 0.5 | 14% | 13µM* | 6%
CCc1ccc(NC(=O)CSc2nc3c(c(=O)[nH]2)CN(Cc2ccc(C)cc2)CC3)cc1 | / | -7 | -1.0 | / | 0.0% | /
Cc1ccccc1NCCC(=O)Nc1ccc(Cl)cc1 | 0.5 | -16 | 0.0 | -4% | / | 7%
CCc1ccc(-n2c(N3CCN(c4ccc(F)cc4)CC3)nc3ccccc3c2=O)cc1 | / | -7 | -0.5 | / | ? | /
Cc1nc2ccccn2c(=O)c1NC(=O)c1ccc(Br)o1 | / | -8 | -0.7 | 47% | -1.2% | /
COc1cc(NC(=O)CCC(=O)OCCCC(F)(F)C(F)(F)F)nc(OC)n1 | -0.5 | 6 | -0.2 | -36%[inhibitor] | / | -8%
